Vaccinia Venus: qHTS for Stage-Specific Inhibitors of Vaccinia Orthopoxvirus: Venus Reporter Primary qHTS; Vaccinia virus Venus reporter expression, fluorescence; Potency, µM (titrated, usually from 36.5 µM), inactives show top-dose activity change, negative = inhibition, most hits filed as inhibitors; hit rate 0.46% among 330,000; AID 720580, 2013; active means well fitted inhibition curve with a large enough effect; inconclusive means small, poorly fitted or top-dose-only effect; inactive means no such curve, though single readings can be large or run the other way; tested in A549 cells; also: nearly all actives have a fitted effect of over 30% in size; inactives centre near -10
Vaccinia mCherry: qHTS for Stage-Specific Inhibitors of Vaccinia Orthopoxvirus: mCherry Reporter Primary qHTS. hit rate 0.63% among 310,000. Vaccinia virus mCherry reporter infection, fluorescence; about a quarter of the inactives have no number. Potency, µM (titrated, usually from 36.5 µM), for the others: top-dose activity change, negative = inhibition, usual class: inhibitors; active = well fitted inhibition curve with a large enough effect; inconclusive = small, poorly fitted or top-dose-only effect; inactive = no such curve, though single readings can be large or run the other way; tested in A549 cells; also: nearly all actives have a fitted effect of over 35% in size; inactives centre near -10
* marks the source's active call; other numbers are inactive results; i = inactive; u = inconclusive; x = not tested or not shown; [ ] = another dose, or the depositor's remark. % is scaled to controls: 0 for no effect and ±100 for the full control effect; potency is read from the fitted curve at half-maximal effect.

SMILES	Vaccinia Venus	Vaccinia mCherry
Cc1ccc(CC(=O)Nc2ccc(C(=O)N3CCOCC3)cc2)cc1	-3%	-10%
Cc1ccc2c(c1)N(CC(=O)N1CCCCC1)C(=O)CO2	-3%	-13%
O=C(c1ccc2c(c1)OCO2)N1CCN(S(=O)(=O)c2ccc(Cl)cc2)CC1	-10%	-20%
CC(=O)c1c(C)oc2ccc(N(C(C)=O)S(=O)(=O)c3ccc(F)cc3C)cc12	-7%	i
COC(=O)c1ccc(OC)c(Cn2c(=O)n(-c3cccc(Cl)c3)c(=O)c3c2c2cc(C)ccc2n3C)c1	-2%	2%
COc1ccc(CC(=O)NNS(=O)(=O)c2ccc([N+](=O)[O-])cc2)cc1OC	11%	-4%
O=C1NC(=O)C(CCc2ccccn2)(Cc2ccc3c(c2)OCO3)C(=O)N1CCc1ccccc1 (centres undefined)	-17%	-28%
COc1ccccc1CC(=O)Nc1ccc(C(=O)N2CCCCC2)cc1	-16%	-1%
Cc1ccc(S(=O)(=O)N2CCN(c3nc(-c4cccs4)nc4c3ncn4COC(=O)C(C)(C)C)CC2)cc1	-9%	i
CCOc1ccc(N(CC(=O)NCCc2ccc(F)cc2)S(=O)(=O)c2ccccc2)cc1	u	u
CCOC(=O)c1c(NC(=O)c2cc3ccccc3c(=O)o2)sc2c1CCC(C(C)(C)C)C2 (centres undefined)	6%	-7%
S=C1NC2(CCCCC2)N=C1c1ccccc1	-11%	-17%
O=C(CSc1nc2c(c(=O)n1-c1ccc(F)cc1)SCC2)N1CCCC1	-3%	x
NC(=O)NNc1ncc(C(F)(F)F)cc1Cl	-2%	i
CC(C(=O)NCc1ccco1)c1ccc([N+](=O)[O-])cc1 (centres undefined)	-10%	-27%
COc1cccc(CNC(=O)Cn2c(=O)ccc3cc(S(=O)(=O)N4CCC(C)CC4)ccc32)c1	-14%	-15%
CC1Cc2ccccc2N1C(=O)CSc1nnnn1C (centres undefined)	-10%	i
O=C(Nc1c2ccccc2nc2ccccc12)C(Cl)(Cl)Cl	-24%	x
CCOC(=O)C1=C(CN2CCC(C)CC2)NC(=O)NC1c1ccc(OC(C)C)cc1 (centres undefined)	-6%	-5%
Cc1cc(C)cc(Nc2cc(C(=O)NC3CCCCC3)c3ccccc3n2)c1	-12%	i
CCN(CC)CCNC(=O)c1cn(CC)c2ccc(S(=O)(=O)N(C)C)cc2c1=O	1%	-3%
CCCC(CCC)=NNC(=O)CN(Cc1ccccc1)S(=O)(=O)c1ccccc1	3%	0%
CCOC(=O)C1CCN(C(=O)/C=C/c2ccc3c(c2)OCO3)CC1	-9%	-20%
CCc1[nH]nc(C(=O)N2CCCC(Nc3cccc(F)c3)C2)c1C (centres undefined)	-16%	i
C=CCN(CC=C)CCOc1ccccc1[N+](=O)[O-]	20%	-16%

The last two compounds of the section before are carried over, then new ones follow:
SMILES	Vaccinia Venus	Vaccinia mCherry
CCc1[nH]nc(C(=O)N2CCCC(Nc3cccc(F)c3)C2)c1C (centres undefined)	-16%	i
C=CCN(CC=C)CCOc1ccccc1[N+](=O)[O-]	20%	-16%
CC1(c2nc3ccccc3[nH]2)CCC(=O)N1C1CC1 (centres undefined)	-3%	24%
COc1cccc(CNC(=O)c2nnc(Cc3ccc(Cl)cc3)o2)c1	-16%	-16%
CN(C(=O)CC(=O)Nc1ccc2nc3n(c(=O)c2c1)CCCCC3)c1ccccc1F	-8%	-8%
COc1cccc(CNC(=O)c2cc3ccccn3n2)c1	-13%	i
O=C(CCCN1C(=O)/C(=C\c2cccs2)SC1=S)Nc1cccc(C(=O)O)c1	1%	-15%
CCOC(=O)c1cc(-c2ccccc2)n(CCC(=O)Nc2ccc(Cl)c(C(F)(F)F)c2)c1C	u	u
Cc1cc(N2CCOCC2)nc(N2CCOCC2)n1	-6%	i
COc1ccccc1N1CCN(C(=O)Cn2ncc3c(=O)oc4ccccc4c32)CC1	3%	-1%
COCCN(C(=O)COC(=O)/C=C/c1ccc2ccccc2n1)c1c(N)n(Cc2ccccc2)c(=O)[nH]c1=O	u	-28%
COc1ccc(N2CCN(c3oc(/C=C/c4cccc(OC)c4)nc3C#N)CC2)cc1	-14%	-20%
CC(=O)NS(=O)(=O)c1ccc(N=NN2CCCCC2)cc1	-11%	-14%
Cc1noc(C)c1S(=O)(=O)Nc1ccc2c(c1)C(=O)N([C@@H](C)CO)C[C@H](C)[C@@H](CN(C)Cc1ccc(C(F)(F)F)cc1)OCCCC[C@H](C)O2	u	u
CCOC(=O)[C@]12CCC=C1N(CCC1=CCCCC1)C(=O)[C@H](CC(=O)N1CCN(C(=O)c3ccco3)CC1)C2	-7%	-10%
COc1ccc(/C=C/C(=O)NCc2nc3ccccc3[nH]2)cc1OC	3%	i
Cc1ccccc1NS(=O)(=O)c1cc(C(=O)N2CCCC2)ccc1C	-19%	x
CN(C(=O)CO/N=C/c1ccc(OC(F)F)cc1)C1CCS(=O)(=O)C1 (centres undefined)	-6%	-5%
O=C(NCc1ccco1)c1nc2ncccn2n1	-11%	i
CN(C)C1CN(Cc2cn(Cc3ccc(Cl)cc3)nn2)S(=O)(=O)C1 (centres undefined)	3%	14%
O=C(NC(=S)Nc1cccc2cccnc12)c1ccccc1	-6%	x
CCOC(=O)CN1C(=O)S/C(=C/c2cc(C)n(-c3ccccn3)c2C)C1=O	-7%	-18%
Cc1nnc(C)n1/N=C/c1cccc(Oc2ccccc2)c1	-12%	-4%
COc1ccc(/C(O)=C2/C(=O)C(=O)N(CCCN(C)C)C2c2ccc(Cl)cc2)cc1OC (centres undefined)	-8%	i
NC(Cc1ccc(Cl)cc1)c1csc(NC(=O)Nc2ccccc2)n1 (centres undefined)	u	u
Cc1cc(C)nc(CCNC(=O)c2cc(COc3ccc(F)cc3F)on2)n1	-6%	i
CCOC(=O)C1=CC[C@@H](c2cc3cc(OC)ccc3n2C)N(S(=O)(=O)c2ccc(C)cc2)[C@H]1C(=O)OCC	-23%	-22%

5 entries from above, sorted by length of the SMILES, smallest number first:
SMILES	Vaccinia Venus	Vaccinia mCherry
O=C(NCc1ccco1)c1nc2ncccn2n1	-11%	i
COc1cccc(CNC(=O)c2cc3ccccn3n2)c1	-13%	i
COc1cccc(CNC(=O)c2nnc(Cc3ccc(Cl)cc3)o2)c1	-16%	-16%
CN(C(=O)CO/N=C/c1ccc(OC(F)F)cc1)C1CCS(=O)(=O)C1 (centres undefined)	-6%	-5%
COc1ccc(N2CCN(c3oc(/C=C/c4cccc(OC)c4)nc3C#N)CC2)cc1	-14%	-20%

Continued:
SMILES	Vaccinia Venus	Vaccinia mCherry
Cc1ccc(CCC(=O)Nc2ccc([N+](=O)[O-])cc2Cl)o1	-4%	-6%
Cc1ccc(/C=C/c2onc(C)c2S(=O)(=O)N2CCC(C(=O)N3CCC(N(C)C(C)C)CC3)CC2)cc1	u	-29%
Cc1ccc(-c2nnc3ccc(SCC(N)=O)nn23)cc1	-12%	-9%
Nc1cccc(/C=C/c2ccnc3ccccc23)c1	-18%	-27%
Cc1ccc(N2CCN(C(=O)c3cccs3)CC2)c(C)c1	0%	-12%
CCN(CC)C(=O)c1ccc2nc(-c3ccccc3)c(-c3ccccc3)nc2c1	-3%	-11%
CC1(C)CC(=O)C=C(NCCO)C1	-10%	-13%
COC(=O)c1sccc1NC(=O)CSc1ccccc1NC(=O)CNC(C)C	-4%	-11%
COC(=O)c1sc(SC)c2c1CC(C)(C)C/C2=N/O	1%	-12%
CCOC(=O)C1=C(COC(=O)COc2ccc(OCC)cc2)NC(=O)NC1C (centres undefined)	-5%	-11%
COCCNC(=O)c1c[nH]c2ccc(S(=O)(=O)Nc3ccc(F)cc3F)cc2c1=O	-1%	-8%
O=C(CCN1CCN(Cc2ccccc2)CC1)Nc1ccc(OCc2ccccc2)cc1	-29%	u
CC1CCN(C(=O)CSc2ccc(-c3cccnc3)nn2)CC1	-13%	-5%
CCOC(=O)CCC(=O)OCC(=O)NC(C)C1CC2CCC1C2 (centres undefined)	-8%	x
c1ccc2c(CNCCN3CCOCC3)cccc2c1	4%	x
Cc1cc(C(=O)COC(=O)C2=NN(c3ccccc3)C(=O)CC2)c(C)n1CC(F)(F)F	-8%	i
Cc1ccccc1[N+](=O)[O-]	-7%	-3%
N#C/C(=C\c1ccccc1)C(=O)Nc1ccccn1	1%	i
CCOc1ccc(-c2nc(SCC(=O)Nc3cc(F)ccc3F)n3[nH]c(=O)cc3n2)cc1	-11%	-12%
C[C@@H]1CN([C@H](C)CO)C(=O)c2c(c3ccccc3n2C)-c2ccccc2CO[C@H]1CN(C)Cc1ccc(Oc2ccccc2)cc1	-27%	-14%
COc1ccc(Nc2nc(Cl)nc(NCc3ccco3)n2)cc1	-12%	-2%[1.46 µM]
C/C(=N/NS(=O)(=O)c1ccc(C)cc1)[C@H]1C[C@@H]1c1ccccc1	-10%	-12%
COc1ccc(C(=O)CCN(C)C)c2ccccc12	u	-10%
O=C(NCCc1ccccc1)C(=O)N/N=C/c1ccccc1C(F)(F)F	-12%	-11%
O=C(N/N=C/c1cccnc1)c1ccccc1[N+](=O)[O-]	-4%	i

Remaining list, next part
SMILES	Vaccinia Venus	Vaccinia mCherry
Cc1cccc(NC(=O)CSc2nc(C3CCCC3)nc3c2c(=O)n(C)c(=O)n3C)c1C	-5%	32%[activator]
C[C@H](NC(=O)CCC(=O)N1C[C@H]2C[C@H](C1)c1cccc(=O)n1C2)c1ccccc1	10%	11%
Cn1c(CC(=O)Nc2ccccc2F)nnc1SCC(=O)Nc1ccccc1Br	-3%	i
CC(C)(C)NC(=O)C(c1cccc2ccccc12)n1c(=O)c(-c2cc3ccccc3[nH]2)nc2ccccc21 (centres undefined)	-6%	0%
N=c1ccn(Cc2ccc(Cl)cc2)cc1	u	x
CCOC(=O)c1[nH]c2ccccc2c1NC(=S)Nc1ccccc1C	1%	21%
CCOC(=O)CN1C(=O)C(=O)N(Cc2c(F)cccc2Cl)C1=O	6%	-7%
CCOC(=O)c1c(NC(=O)Cn2cnc3sc(C)c(-c4ccccc4)c3c2=O)sc(C)c1C	7%	i
COc1ccccc1NS(=O)(=O)c1cc(C(=O)NCC(c2ccco2)N(C)C)ccc1C (centres undefined)	-13%	-7%
O=S(=O)(c1ccccc1)N1CN(Cc2ccc(F)cc2)c2nc3ccccc3nc21	-5%	i
O=C1CCCN2N=C(SCC(=O)Nc3ccccc3C(F)(F)F)SC2=N1	-14%	-20%
CCC12CN3CC(CC)(CN(C1)C3c1cc(Br)ccc1OC)C2=O (centres undefined)	-9%	-1%
Brc1ccc(-c2nnc3sc(CNC4CCCC4)cn23)cc1	-3%	0%
Nc1cc(=O)[nH]c(SCC(=O)Nc2ccccc2-c2ccccc2)n1	6%	7%
COc1cc(OC)cc(-c2cc3nc(C)c(CCC(=O)NCc4ccc(Cl)cc4)c(C)n3n2)c1	-22%	-5%
CC(OC(=O)c1ccc(NS(=O)(=O)c2cccs2)cc1)C(=O)N(C)C1CCCCC1 (centres undefined)	-3%	u
CCc1ccc(N(CC)C(=O)c2cn(C)c(=O)c3cc(OC)c(OC)cc23)cc1	-1%	-8%
CCc1ccc2[nH]c3nc(SCc4nnc(-c5ccccc5)o4)nnc3c2c1	-14%	-14%
COc1ccc(CNC(=O)C[C@H]2C(=O)N(Cc3ccc(OC)cc3)C[C@@H]2Cc2ccccc2)cc1	u	u
OCC[C@H]1C[C@H](O)[C@@H](O)[C@@]2(Cc3ccccc3CO2)O1	1%	i
CCC1(CC)CNC(=O)NC1=O	-3%	i
O=C(c1ccco1)N1CCn2cccc2C1c1ccccc1 (centres undefined)	-6%	-10%
c1ccc(N=C2SCCCS2)cc1	u	-19%
Cc1ccc(SCCNC(=O)c2ccc(C)c([N+](=O)[O-])c2)cc1	-20%	5%
COc1ccc(-c2csc(NC(=O)c3ccoc3C)n2)cc1	-4%	i

Retrieved one by one from the list above:
SMILES	Vaccinia Venus	Vaccinia mCherry
CC(OC(=O)c1ccc(NS(=O)(=O)c2cccs2)cc1)C(=O)N(C)C1CCCCC1 (centres undefined)	-3%	u
CCOC(=O)CN1C(=O)C(=O)N(Cc2c(F)cccc2Cl)C1=O	6%	-7%
c1ccc(N=C2SCCCS2)cc1	u	-19%

Later entries
SMILES	Vaccinia Venus	Vaccinia mCherry
CCC(C)[C@H](N)C(=O)NC[C@H]1CC[C@H](C(=O)N[C@@H](Cc2ccccc2)C(=O)O)CC1 (some centres undefined)	-23%	i
CCCN(CCC)C(=O)/C=C/c1cccc([N+](=O)[O-])c1	-14%[7.34 µM]	-2%[7.34 µM]
CC(=O)c1cccc(NC(=O)CC2CCCC2)c1	-4%	i
COc1ccc(N2CCN(C(=O)C3CCN(C(=O)c4ccccc4Cl)CC3)CC2)cc1	-1%	-10%
COc1cc2c(-c3cc(Br)ccc3O)nc3c(c(C)nn3-c3ccccc3)c2cc1OC	-2%	-7%
CN(C)c1ccc(/C=C2/CCCc3c2nc2ccccc2c3C(=O)O)cc1	3%	-8%
O=C(Nc1nc(-c2ccccc2)cs1)c1ccccc1NS(=O)(=O)c1ccc(F)cc1	u	u
C/C(=N\Nc1ccc2nncn2n1)c1ccc(Br)s1	17%	u
O=C(Nc1ccncc1)c1c(F)c(F)c(F)c(F)c1F	u	6.3µM*
CCc1nc2ccc(C(=O)N3CCN(c4cc(C)ccc4C)CC3)cc2nc1CC	-23%	-22%
C[C@@H]1O[C@@H](OC[C@H]2O[C@@H](Oc3c(-c4ccc(O)cc4)oc4cc(O)cc(O)c4c3=O)[C@H](O)[C@@H](O)[C@@H]2O)[C@H](O)[C@H](O)[C@H]1O	1%	4%
CCn1c(SCC(=O)c2[nH]c(C)c(C(C)=O)c2C)nnc1-c1ccccc1	u	u
